Screening data as filed in PubChem BioAssay.
gsp agonist = qHTS for Agonist of gsp, the Etiologic Mutation Responsible for Fibrous Dysplasia/McCune-Albright Syndrome: qHTS | gsp mutant cells, cAMP HTRF, 30 min; control for the full effect not named in the record | Potency, µM (doses to about 76.9 µM), inactives show top-dose activation (cAMP increase), hits mostly activators | hit rate 0.13% among 340,000; active = well fitted activation curve with a large enough effect; inconclusive = small, poorly fitted or top-dose-only effect, or another doubt; inactive = no such curve, though single readings can be large or run the other way; cell line not stated here;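 note: phosphodiesterase inhibitor Ro 20-1724 added with compounds to block cAMP breakdown; potency is the fitted concentration of half-maximal effect; nearly all actives have a fitted effect of over 60% in size; about a fifth of the inactives were tested at one dose only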
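Cells in DMEM/10% FBS with G418 were pretreated with compounds in DMSO plus […] (300 uM stock) for 30 min at 37C. cAMP was measured by HTRF (cAMP-d2 plus anti-cAMP antibody-K) after 30 min at room temperature.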
TRPML1 ag = qHTS for Agonists of the Human Mucolipin Transient Receptor Potential 1 (TRPML1) | Mucolipin-1 (Homo sapiens), Q9GZU1 | TRPML1-expressing cells, Ca2+ dye fluorescence, FDSS; host cell line not named in the record; reference of the full effect not given here | activation, % (test concentration not listed) | hit rate 0.12% among 410,000 | AID 624414, 2012; in the data active = activation above about 50%; inconclusive = about 30% to 50%; inactive = below about 30%; note: 0% is about no effect; the text of the record puts the active cut at 80%
Target sequence (Q9GZU1 whole entry, looked up): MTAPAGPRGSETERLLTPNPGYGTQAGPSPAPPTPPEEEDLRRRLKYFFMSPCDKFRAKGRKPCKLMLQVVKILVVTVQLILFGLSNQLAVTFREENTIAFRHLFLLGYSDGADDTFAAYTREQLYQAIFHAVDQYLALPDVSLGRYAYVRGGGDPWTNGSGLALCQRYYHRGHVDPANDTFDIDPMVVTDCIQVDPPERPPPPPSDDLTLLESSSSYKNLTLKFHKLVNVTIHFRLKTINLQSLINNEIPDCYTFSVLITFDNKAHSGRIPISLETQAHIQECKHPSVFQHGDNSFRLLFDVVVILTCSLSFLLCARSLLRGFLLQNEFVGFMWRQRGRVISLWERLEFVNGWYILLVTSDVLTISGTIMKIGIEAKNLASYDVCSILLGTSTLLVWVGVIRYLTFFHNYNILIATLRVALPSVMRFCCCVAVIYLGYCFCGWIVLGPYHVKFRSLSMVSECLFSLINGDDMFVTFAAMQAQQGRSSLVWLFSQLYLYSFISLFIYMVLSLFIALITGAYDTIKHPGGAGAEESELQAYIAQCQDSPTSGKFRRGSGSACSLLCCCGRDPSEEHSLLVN
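Tet-induced TRPML1-DL cells, 1,500 per well, cultured overnight, were loaded with a no-wash Ca2+ dye for 45–90 min. Calcium fluorescence was recorded on the FDSS for 110 s after compound addition, before the EC80 agonist (4 uM 54-4) was added.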
Menin-MLL FL inh = qHTS Assay for Inhibitors Targeting the Menin-MLL Interaction in MLL Related Leukemias: Competition With Fluorescein Labeled MLL-derived Peptide | Fluorescence polarization, fluorescein-MLL peptide displacement from menin | FP activity change, % at 61.4 µM | 290,000 tested, under 10 active | AID 1766, 2009; inconclusive = falling polarisation curve, or a change in total fluorescence; inactive = total fluorescence flat and polarisation flat or rising; no compound was filed as active; the % refers to the polarisation; negative = inhibition;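 note: % of control where 0% means no effect; inhibitors lower the polarisation; unlabelled MLL peptide was the positive control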
TRPML1 inh = qHTS for Inhibitors of the Human Mucolipin Transient Receptor Potential 1 (TRPML1) | TRPML1-inducible cells, Ca2+ dye fluorescence, FDSS; active compounds read low; inhibition of EC80 agonist-evoked calcium signal | activity change, negative = inhibition, % (concentration not given with the values) | hit rate 0.02% among 390,000 | AID 624415, 2012; in the data active means activity change below about -50%; inconclusive means about -30% to -50%; inactive means above about -30%;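 note: stimulus is agonist 54-4 at its EC80 concentration; % is set by controls: 0 for no effect and ±100 for the full control effect; the text of the record puts the active cut at -80%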
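Tet-induced TRPML1-DL cells loaded with Ca8 no-wash calcium dye were read kinetically on FDSS. Compound addition was followed by EC80 agonist 54-4 (4 uM final); inhibition was read over 110 s.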
gsp antag = qHTS for Antagonists of gsp, the Etiologic Mutation Responsible for Fibrous Dysplasia/McCune-Albright Syndrome: qHTS | gsp-mutant cells, cAMP HTRF, 30 min; control for the full effect not named in the record | hit rate 0.4% among 340,000 | Potency, µM (titrated, usually from 76.9 µM), for inactives: at the highest dose activity change, negative = inhibition, most hits filed as inhibitors; active = falling curve of any shape with a large fitted effect; inconclusive = falling curve, mostly with a smaller effect; inactive = flat or rising curve; cell line not stated here;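 note: intracellular cAMP measured with PDE inhibitor Ro 20-1724 present during compound exposure; potency is the fitted concentration of half-maximal effect; % is set by controls: 0 for no effect and ±100 for the full control effect; nearly all actives have a fitted effect of over 65% in size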
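Cells in G418 medium, seeded 16-24 h, 37C; buffer exchange to DPBS + 1 mM CaCl2, 0.5 mM MgCl2, 0.05% BSA; cpds in DMSO + […] (300 uM stock), 30 min 37C; HTRF cAMP detection.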
ClpP mod = qHTS Assay for Activators of ClpP; hit rate 1.9% among 340,000; Potency, µM (top dose mostly 57.5 µM), inactives show top-dose activity change, negative = active; ATP-dependent Clp protease proteolytic subunit (Bacillus subtilis (strain 168)), P80244; AID 651965, 2013; purified B. subtilis ClpP, FRET peptide cleavage, 20 min; active = well fitted falling curve with a large enough effect; inconclusive = small, poorly fitted or top-dose-only effect; inactive = no such curve, though single readings can be large or run the other way; note: potency is the fitted concentration of half-maximal effect; the source files actives as falling curves though it sought activators and does not explain the sign; nearly all actives have a fitted effect of over 65% in size; many hits overshoot -100%
Target sequence (P80244 whole entry, looked up): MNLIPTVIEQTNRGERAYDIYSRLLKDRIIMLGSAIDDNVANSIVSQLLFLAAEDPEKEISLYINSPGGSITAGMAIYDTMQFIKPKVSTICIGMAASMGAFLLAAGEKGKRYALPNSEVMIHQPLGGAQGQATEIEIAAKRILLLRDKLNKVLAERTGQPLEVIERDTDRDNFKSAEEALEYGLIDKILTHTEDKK
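Purified B. subtilis ClpP, 10 microg/mL final in Tris/HCl pH8 with KCl, BSA, glycerol and Tween-20, cleaved an Abz/nitrotyrosine-quenched decapeptide. Fluorescence (ex 320, em 430) was read at 0 and 20 min at room temperature. Delta was normalized to 5.8 microM ADEP and DMSO/no-enzyme controls.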
The depositor's hits bear a star; ? = inconclusive; / = no result given; [ ] = remark or other dose.

SMILES	gsp agonist	TRPML1 ag	Menin-MLL FL inh	TRPML1 inh	gsp antag	ClpP mod
CCn1c(=O)c(C(=O)Nc2ccc(C(C)=O)cc2)nc2ccccc21	/	-0.8	/	13.3	/	0.3%
CC(=O)Nc1ccc(OCC(O)Cn2nc(C)c(Br)c2C)cc1 (stereo not drawn)	-23.0%	-0.7	2.2	21.8	-6.1%	0.0%
Cn1c(=O)n(C)c2cc(NS(=O)(=O)c3ccc(Br)s3)ccc21	7.4%	2.3	-0.8	14.7	-2.6%	/
CC(C)c1ccc(NC(=S)NCc2ccc3c(c2)OCO3)cc1	?	-0.2	3.1	-3.5	-4.9%	-1.4%
O=C(O)CCC(=O)Nc1ccc(Cc2ccc(NC(=O)CCC(=O)O)c(O)c2)cc1O	-23.9%	-0.4	0.7	0.2	-5.4%	3.4%
CCOC(=O)c1c(N2C(=O)Nc3ccccc3N2O)n[nH]c1-c1cccc(Cl)c1	22.6%	-0.1	0.5	-8.7	0.3%	/
COc1ccc(N(Cc2cccs2)C(=O)c2ccc(Br)o2)cc1	/	6.4	/	-16.6	/	0.5%
NC(=O)c1cccnc1Sc1ccc(Cl)cc1	16.3%	-0.7	5.3	0.0	3.3%	/
Cc1ccc(-n2nc3c(c2NC(=O)C2CC2)CS(=O)(=O)C3)cc1C	4.7%	0.6	/	?	4.7%	-17.9%
Cc1cc(C)c2nc(NC(=O)c3ccc(S(=O)(=O)N4CCCC4)cc3)sc2c1	/	1.6	/	-23.2	/	-3.9%
N#C/C(=C\c1ccccc1)C(=O)N1CCN(c2ccccc2F)CC1	16.0%[15.4 µM]	-0.1	-5.7	12.0	1.0%	/
COc1ccc(C(=O)c2ccccc2O)c(O)c1	/	0.8	-3.9	10.3	-8.3%	0.0%
CCc1ccc(NC(=O)COC(=O)Cn2cnc3ccccc32)cc1	-5.2%	0.0	/	-4.2	6.3%	1.4%
Cc1nc2ccc(NC(=O)NCc3ccco3)cc2s1	?	0.9	1.1	6.6	-5.6%	-13.7%
C=CCSc1nnc(NC(=O)C23CC4CC(CC(NC(C)=O)(C4)C2)C3)s1	0.4%	-0.8	/	6.3	-21.3%	0.2%
COc1cc(-c2nc(-c3cccc(Cl)c3)c(-c3ccccc3)[nH]2)cc(OC)c1OC	/	0.3	/	4.2	/	4.9%
COc1ccc2[nH]c3c(c2c1)CCN1C(=O)C(CC(=O)NCCN2CCOCC2)C[C@H](C(=O)N2CCOCC2)[C@@]31CCC1CCCC1 (stereo partly drawn)	/	-0.2	/	-22.4	2.7%	-0.4%
Cc1ccc(S(=O)(=O)NCC(=O)OCC(=O)NCc2cccs2)cc1	5.8%[15.4 µM]	1.4	/	0.7	-12.7%	/
CCOC(=O)c1cc(CC)sc1/N=C/C1=C(O)CC(C)(C)CC1=O	-4.8%[15.4 µM]	1.8	/	-0.1	8.1%	12.5%
CC1([N+](=O)[O-])COC2(CCCCC2)OC1	3.7%	1.2	/	15.2	-1.5%	/
CCn1c(SCC(=O)N/N=C/c2ccc(C)o2)nnc1-c1ccc(C)cc1	-19.0%	1.7	4.1	12.3	-11.5%	-2.1%
COc1ccc(S(=O)(=O)N2CCCC2C(=O)NCc2ccccc2Cl)cc1 (stereo not drawn)	10.9%[15.4 µM]	0.2	-2.6	14.5	1.7%	-0.7%
COc1ccccc1/C=C/C=N/NC(=O)c1cc(-c2ccco2)[nH]n1	-3.8%[15.4 µM]	0.8	11.6	-2.0	?	/
O=C(COC(=O)c1c(F)cccc1F)Nc1ccc2[nH]c(=O)[nH]c2c1	-0.5%	-0.3	-1.2	-0.3	5.5%	/
CC(C)NC(=O)NC(=O)CSc1ccc(S(=O)(=O)N2CCOCC2)cn1	-5.5%	0.3	/	26.6	-16.6%	?
O=C(c1ccc(=O)oc1)N1CCOCC1	10.8%	-0.1	17.4	-2.0	-14.8%	31.6µM*
COc1ccc(C(=O)NC2CCCc3ccccc32)cc1 (stereo not drawn)	-57.9%	-0.3	0.3	20.7	-1.2%	/
Cc1ccc(C(=O)Cn2nnc3ccccc32)cc1C	?	0.6	3.8	12.6	-4.4%	-2.0%
O=C(CN1c2cccc3cccc(c23)S1(=O)=O)NCc1ccc2c(c1)OCO2	-30.3%[inhibitor]	1.2	9.7	-5.1	-16.5%	-23.7%
CCC(C(=O)OCc1csc(CC(=O)Nc2ccccc2C)n1)c1ccccc1 (stereo not drawn)	-27.4%	0.0	/	8.6	-13.6%	-0.2%
c1coc(-c2ccnc(-n3cccc3)n2)c1	9.5%	-0.8	2.1	-3.7	1.0%	/
CCOC(=O)CC(NC(=O)c1cccc2c1C(=O)N(Cc1cccnc1)C2)c1ccc(OC(C)C)cc1 (stereo not drawn)	16.5%	-1.0	4.1	-6.5	0.1%	/
CCN(CC)c1ccc(/C=N/NC(=O)c2c[nH]c3ccccc23)cc1	-3.3%	5.1	10.2	-5.6	0.5%	31.6µM*
Cc1ccc(OCC(=O)Nc2ccccc2[N+](=O)[O-])c(Br)c1	-21.3%[15.4 µM]	1.4	-1.6	15.4	-0.1%	/
COC(=O)C1=C(C)NC(=O)/C1=C\c1cc(C)n(-c2c(C)cccc2C)c1C	-15.1%	-0.2	0.4	8.8	-0.3%	-2.9%
COc1ccccc1NC(=O)Nn1cnnc1	16.3%	0.0	0.0	7.0	4.8%	-2.1%
CCCC(=O)Nc1nnc(SCC(=O)N2CCN(c3ccccc3)CC2)s1	11.6%	-0.5	0.8	-13.5	-12.2%	-2.8%
NS(=O)(=O)c1ccc(CNC(=O)c2ccc3ccccc3n2)cc1	-1.0%[15.4 µM]	0.1	-1.5	-10.0	7.2%	/
CN(C(=O)CSc1nnc(-c2ccco2)n1Cc1ccccc1)C1CCS(=O)(=O)C1 (stereo not drawn)	9.5%	-0.3	/	-1.2	12.0%	0.4%
O=C1OCCC1(c1ccccc1)c1ccccc1	-9.4%[15.4 µM]	0.8	/	8.5	-2.6%	/
CC(=O)NCc1ccc(S(=O)(=O)N/N=C/c2ccc(N(C)C)cc2)cc1	7.8%[15.4 µM]	1.6	2.9	11.1	-1.8%	/
CN1CCC(N2CCCC(C(=O)O)C2)CC1 (stereo not drawn)	20.5%	3.5	0.2	7.1	2.7%	-1.9%
CC(=O)N1CCN(C(=O)c2ccc(C)c(S(=O)(=O)N3CCCCC3)c2)CC1	5.0%	0.7	/	11.2	11.1%	-1.9%
COC(=O)C1=C(Nc2ccccc2NC(=O)c2ccccc2C(=O)O)CSC1	-5.1%	3.3	6.4	15.9	-0.3%	-8.9%
CCOC(=O)N1CCC(N2C(=O)c3ccccc3C2Nc2ccc(S(=O)(=O)N(CC)CC)cc2)CC1 (stereo not drawn)	-19.4%[15.4 µM]	0.0	1.4	-12.2	/	/
CCC(=O)OC1c2ccccc2C(=O)N1Cc1ccccc1 (stereo not drawn)	-58.6%[inhibitor]	0.5	5.6	2.6	-3.0%	0.5%
Cc1ccc(-n2ncc(C(=O)NCCN3CCCC3)c2C2CCN(C(=O)OC(C)(C)C)CC2)cc1	/	2.6	/	-2.0	/	0.7%
CCOC(=O)C1=C(C)N(CCCC(=O)O)C(=O)NC1c1ccccc1OS(=O)(=O)c1ccc([N+](=O)[O-])cc1 (stereo not drawn)	1.7%	-0.1	/	-5.8	-16.4%	0.7%
CCC(C)(C)C1CCc2[nH]nc(C(=O)NC3CCCCC3)c2C1 (stereo not drawn)	?	-0.5	/	-2.7	-15.7%	1.2%
O=C(COc1ccc2ccc(=O)oc2c1)Nc1cccnc1	15.1%	0.7	-3.4	-7.3	5.9%	4.2%
(cont.)
SMILES	gsp agonist	TRPML1 ag	Menin-MLL FL inh	TRPML1 inh	gsp antag	ClpP mod
COc1ccc(C(C)=O)cc1CSc1nnc(C)s1	3.0%	3.7	1.9	-13.4	3.9%	-0.3%
COc1cccc(Cn2cc(S(=O)(=O)c3ccc(C)cc3)c(=O)c3cc4c(cc32)OCO4)c1	/	2.6	/	14.2	/	-29.9%
O=C(CN1C(=O)C2CC=CCC2C1=O)NC1CCCc2ccccc21 (stereo not drawn)	-12.3%	0.0	-7.6	4.1	-9.0%	0.4%
CCOC(=O)C(Oc1ccc2c(-c3ccc(OC)cc3)cc(=O)oc2c1C)c1ccccc1 (stereo not drawn)	-23.2%	1.0	1.1	-4.1	-0.6%	-24.4%
Cc1cc(C(F)F)nn1CC(=O)N1CCSCC1	6.7%	-0.2	2.7	29.7	12.5%	-0.6%
COc1ccc(NC(=O)CSc2nnc(-c3ccoc3C)n2CC2CCCO2)cc1 (stereo not drawn)	-41.9%[inhibitor]	0.2	2.1	-5.9	-4.9%	-4.2%
O=C(C(c1ccccc1)c1ccccc1)N1CC[C@@]2(O)CCCC[C@H]2C1	-4.1%[15.4 µM]	-0.8	3.8	-17.8	0.0%	-0.9%
COC(=O)c1ccc(Oc2c(C(F)(F)F)oc3c(CN4CCN(C)CC4)c(O)ccc3c2=O)cc1	?	-0.8	5.8	-6.1	-5.9%	1.5%
CCOC(=O)c1cocc1C(=O)O	-13.5%	0.3	/	-11.1	-1.2%	-7.4%
O=C(NCCS(=O)(=O)NCCc1ccccc1)c1ccc2c(c1)OCO2	?	0.5	/	-4.7	-4.5%	?
CC1(C)c2ccccc2-c2nc3ccccc3cc2C1O (stereo not drawn)	23.5%	2.1	8.6	-19.7	-6.0%	/
Nc1nonc1NC(=O)CSc1ncccc1C(=O)O	-7.6%	0.4	4.4	10.9	4.5%	-0.4%
COc1ccc(/C=N/NC(=O)CC(=O)NCCc2ccccc2)cc1OC	3.1%	1.7	-1.0	4.0	1.7%	-10.4%
Cc1ccc(-c2c(C(=O)N/N=C/c3ccc4c(c3)OCO4)nnn2-c2nonc2N)cc1	21.1%	-0.2	4.5	-11.6	25.1µM*	4.0%
CCN(CC)c1ccc(CNc2ccc3c(c2)ncn3CC)cc1	-26.1%	1.0	-0.3	10.5	-6.9%	/
O=C(NNC(=O)c1ccncc1)Nc1ccc(Br)cc1	1.2%	0.0	/	28.0	11.8%	/
Cc1ccccc1N1CN(Cc2ccco2)CNC1=S	3.0%[15.4 µM]	0.2	3.0	-0.1	9.3%	-7.3%
O=S(=O)(c1ccccc1)c1nnn2c1nc(NCc1ccc(Cl)cc1)c1sccc12	/	-0.4	/	-11.0	/	?
Cc1ccc(C)c(OCCn2cc(C(=O)c3ccco3)c3ccccc32)c1	/	1.0	/	26.5	/	-0.2%
